# PKD1 kinase inh = inhibitors of human PKD1 kinase. PKD1 kinase fluorescence polarization assay. inhibition, %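 (about 10 µM by stock and volumes)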. 200,000 tested, 0.056% active;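 active = inhibition of 50% or more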;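 also: controls were vehicle for no effect and a reference inhibitor for full effect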
# Target sequence (Q15139 whole entry, looked up): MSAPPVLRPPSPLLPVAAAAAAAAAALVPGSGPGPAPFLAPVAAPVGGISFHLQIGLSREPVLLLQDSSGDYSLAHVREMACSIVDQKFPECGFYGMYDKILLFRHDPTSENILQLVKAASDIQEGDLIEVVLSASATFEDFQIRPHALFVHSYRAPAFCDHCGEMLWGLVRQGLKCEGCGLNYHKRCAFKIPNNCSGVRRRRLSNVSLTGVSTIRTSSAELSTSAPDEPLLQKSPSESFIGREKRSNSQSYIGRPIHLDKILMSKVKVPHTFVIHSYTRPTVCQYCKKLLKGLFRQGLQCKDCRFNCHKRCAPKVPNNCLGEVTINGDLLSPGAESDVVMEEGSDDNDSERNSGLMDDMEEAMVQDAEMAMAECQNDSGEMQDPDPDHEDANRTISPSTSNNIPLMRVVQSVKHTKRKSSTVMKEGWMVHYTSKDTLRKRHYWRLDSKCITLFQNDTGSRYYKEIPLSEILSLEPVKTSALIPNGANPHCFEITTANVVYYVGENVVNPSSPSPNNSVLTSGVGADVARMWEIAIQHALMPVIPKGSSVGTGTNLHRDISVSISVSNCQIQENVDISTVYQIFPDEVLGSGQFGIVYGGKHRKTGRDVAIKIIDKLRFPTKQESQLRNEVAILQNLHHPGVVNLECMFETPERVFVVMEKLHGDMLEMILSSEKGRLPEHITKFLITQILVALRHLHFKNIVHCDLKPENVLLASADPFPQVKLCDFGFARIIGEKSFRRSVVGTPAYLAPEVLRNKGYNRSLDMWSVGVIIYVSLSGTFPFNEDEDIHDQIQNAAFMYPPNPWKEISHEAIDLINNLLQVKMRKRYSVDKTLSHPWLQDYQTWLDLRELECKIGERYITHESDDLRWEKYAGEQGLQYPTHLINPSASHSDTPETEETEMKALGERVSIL
# GALR2 agonist = GALR2 (human) receptor agonism; O43603; activation, %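 (tested at 5 µM)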; 140,000 tested, 0.48% active; GALR2-expressing cells, agonist activation read-out;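 active = above mean plus 3 SD of all compounds, about 5% in these data, not always enough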;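 also: 0% = vehicle buffer wells and 100% = reference agonist at full effect; tested in CHO reporter cells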
# RGS16-Gao = RGS16-Galphao interaction regulator (human). O15492+P09471. 220,000 tested, 0.38% active. binding response (% of control), % at 10 µM. bead-based flow cytometry RGS16-Galphao binding, fluorescence; actives lie on both sides;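 active = below 25% or above 175%, edge rows of some plates excepted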;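 also: Galphao activated by GDP with aluminum fluoride before binding; 100% = wells without compound and 0% = beads without RGS; some results beyond the cut were filed as inactive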
# HSV augment = HSV replication enhancement; HSV replication augmentation in cells, fold increase; maximum fold increase; 220,000 tested, 0.005% active;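 active = peak rise of 1.5-fold or more in the series; tested in PC3 cells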;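 also: first round at 10 µM; read as green reporter fluorescence; hits show the peak of a series up to 25 µM; 1 = signal of infected wells without compound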
# INS promoter inh = TRM-6 insulin promoter activity inhibition; 130,000 tested, 0.9% active; inhibition, % at 2 µM; TRM-6 cells (human fetal islet line), insulin promoter-eGFP reporter, imaging; reporter expression induced with tamoxifen;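 active = inhibition above the mean plus 3 SD, with well images judged a real hit on visual review, cut at about 60% in these data, passing the limit was not always enough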
# INS promoter inh cell count = further read-out of INS promoter inh, marked with its call; normalized cell count, %; measured here: cell count, toxicity; reference of the scale not given here;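 cells exposed to compound for 48 h; stained nuclei by imaging scaled within each plate; lower means fewer cells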
# HSV augment primary fold = second read-out of HSV augment, no call of its own (marks repeat the call); fold increase; compound at 10 µM; measured here: primary screen fold increase 10 uM; tested in PC3 cells;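 GFP signal in the first replicate; 1 = infected wells without compound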
# An asterisk follows results filed as active; i = inactive; / = no result given; [ ] = another dose, or the depositor's remark.
structure	HSV augment primary fold	RGS16-Gao	GALR2 agonist	INS promoter inh cell count	INS promoter inh	PKD1 kinase inh	HSV augment
O=c1[nH]c2cc3c(cc2cc1C(c1nnnn1CC1CCCO1)N1CCCCCC1)OCCO3 (stereo not given)	0.75	100	2.2	110	-25	2	i
COc1cc(/C=N/NC(=O)NC2CCCCC2)cc(OC)c1O	0.89	96	/	/	/	/	i
O=c1cccccc1NN=C1CCCCCC1	1.1	96	/	/	/	/	i
N#Cc1nc(-c2ccc(Cl)cc2)oc1NCC1CCCO1 (stereo not given)	0.91	103	/	/	/	2	i
CCOC(=O)N1CCC(NC(=O)CN2C(=O)C(CC)Oc3ccc(C)cc32)CC1 (stereo not given)	1	102	-1.4	136	0	-4	i
CN(C)S(=O)(=O)c1cc(NC(=O)CN2CCOCC2)ccc1Cl	1	104	/	83	-25	-6	i
Cc1cc(C)n2nc(SCC(=O)c3ccccc3)nc2n1	0.97	101	-1.5	149	34	-5	i
CCCn1c(N)c(C(=O)CSc2nnc(C3CC3)n2Cc2ccccc2)c(=O)[nH]c1=O	0.93	106	-1.6	109	37	-4	i
CCOC(=O)N1CCN(C(=O)CN(c2ccc(OCc3ccccc3)cc2)S(C)(=O)=O)CC1	0.78	89	1.8	80	-44	4	i
Cc1ccc(-c2cn3cccnc3n2)cc1NC(=O)c1ccc(Br)o1	0.91	93	-3.1	112	57	-4	i
COc1ccc(C2c3c(n[nH]c3C)CC(C)(O)C2C(C)=O)cc1OC (stereo not given)	0.99	94	-2.8	/	/	-4	i
Cc1oc(-c2ccoc2)nc1CN(CC1CCC(=O)N1)C(C)C (stereo not given)	0.98	103	/	/	/	3	i
CC(C)NC(=O)c1cc(-n2cnnc2)ccc1Cl	0.95	105	-1.1	67	-18	-7	i
CC(NC(=O)c1cc2ccccc2o1)C(=O)O (stereo not given)	0.94	104	-0.2	/	/	-10	i
COC(=O)CCC(=O)CN	0.98	56	-0.8	69	-9	-8	i
O=C(Nc1nc(-c2ccc(Cl)s2)cs1)c1ccccc1	0.98	102	-1.8	94	-15	6	i
N#CC1=C(SCc2ccccc2)NC(=O)CC1c1ccco1 (stereo not given)	0.74	96	-1.8	/	/	-5	i
N#CCCN(C(=O)COC(=O)c1ccc2c(=O)n3c(nc2c1)CCC3)c1ccc(F)cc1	0.99	102	/	/	/	1	i
Cc1cccc(NC(=O)[C@H](Cc2ccccc2)NC(=O)OCc2ccccc2)c1	0.83	106	-2.1	47	-27	-5	i
O=c1c(Sc2ccccc2)c(C(F)(F)F)[nH]n1-c1ccccc1	0.92	109	-1.5	129	33	-11	i
CCCCCCCCCCC(=O)Nc1cccnc1	0.94	101	/	/	/	-3	i
O=C(NCc1ccccc1)C1CCC(CNc2c(N3CCCCC3)c(=O)c2=O)CC1 (stereo not given)	/	97	-0.4	70	27	3	/
Cc1ccc(OCc2nnc(SCC(=O)Nc3ccc4c(c3)OCO4)n2C)cc1	0.89	93	0.3	80	16	-7	i
CC1(C)CC(=O)c2c(oc3cc(O)c(O)cc23)C1	0.71	97	-1.6	103	24	-3	i
O=C(Nc1cccc(S(=O)(=O)Nc2ccccc2F)c1)c1ccc2ccccc2n1	1.2	93	/	88	-39	5	i
COc1ccccc1N1C(=O)N(C(C)=O)C2C1Nc1ccccc1N2C (stereo not given)	1.2	101	-0.7	/	/	-2	i
Cc1ccc(CNC(=O)CCC2CCCN(C(=O)c3ccc4c(c3)OCO4)C2)o1 (stereo not given)	1.1	100	/	/	/	1	i
CCN(CC)C(=O)N1CCN(C(=O)N2CCOCC2)CC1	0.92	112	/	/	/	2	i
O=S(=O)(O)c1nc2ccccc2n1Cc1ccc(Cl)cc1	1.1	111	-2.3	/	/	-18	i
Cc1ccc(CNC(=O)C2CC(c3ccccc3[N+](=O)[O-])=NO2)o1 (stereo not given)	1	94	-1.0	88	0	-6	i

# A different layout for part of the listing above:
canonical_smiles: O=C(NCc1ccccc1)C1CCC(CNc2c(N3CCCCC3)c(=O)c2=O)CC1 (stereo not given)
  HSV augment primary fold: /
  RGS16-Gao: 97
  GALR2 agonist: -0.4
  INS promoter inh cell count: 70
  INS promoter inh: 27
  PKD1 kinase inh: 3
  HSV augment: /

canonical_smiles: Cc1ccc(CNC(=O)C2CC(c3ccccc3[N+](=O)[O-])=NO2)o1 (stereo not given)
  HSV augment primary fold: 1
  RGS16-Gao: 94
  GALR2 agonist: -1.0
  INS promoter inh cell count: 88
  INS promoter inh: 0
  PKD1 kinase inh: -6
  HSV augment: i

# More entries follow.
structure	HSV augment primary fold	RGS16-Gao	GALR2 agonist	INS promoter inh cell count	INS promoter inh	PKD1 kinase inh	HSV augment
COc1cc(C2NC(=S)NC(c3ccccc3)=C2C(C)=O)ccc1O (stereo not given)	1	101	/	/	/	-4	i
COc1ccc(/C=C/C(=O)NCCOc2ccc(C)cc2)cc1	0.97	105	-1.1	91	7	-3	i
CCN(CC)C(=S)NCCc1ccccc1	1.2	106	/	118	-29	-6	i
C[C@@H](CN1C2=NC[C@H](C)N2C[C@H]1Cc1ccc(O)cc1)NC(=O)CCC1CCCCC1	1.1	100	/	/	/	-7	i
Cc1ccc(-c2nnc(SCC(C)C)n2C)cc1	0.85	110	-1.6	100	26	-7	i
NC(=O)C(CC(=O)O)NC(=O)[C@@H]1CCOc2c(I)cc([N+](=O)[O-])cc2C(=O)N[C@@H](CCC(=O)O)C(=O)N[C@@H](CO)C(=O)N1 (stereo not given in full)	1.3	112	-1.3	137	45	-4	i
CCN(CC)c1ccc([N+](=O)[O-])cc1C(=O)N1CCOCC1	0.98	103	/	/	/	-4	i
O=C(CC12CC3CC(CC(C3)C1)C2)NCCN1CCOCC1	0.89	101	-2.4	168	13	-10	i
CCOCCCN1C(=O)CN(C2CCCCC2)C(=O)C1c1ccc(OCC)c(OC)c1 (stereo not given)	0.84	113	-1.5	127	-3	4	i
O=C(c1ccccc1F)N1CCN(c2ccc([N+](=O)[O-])c(NCC3CCCO3)c2)CC1 (stereo not given)	0.98	101	/	/	/	0	i
CCn1c(SCC(=O)O)nc2ccccc21	1	113	/	89	0	-2	i
Cc1ccc2[nH]c(=O)c(C(c3nnnn3C(C)(C)C)N3CCN(C(=O)c4ccco4)CC3)cc2c1 (stereo not given)	0.92	97	-1.3	114	40	10	i
CCN(CC)S(=O)(=O)c1cccc(C(=O)OCC(=O)NC(C)c2ccccc2)c1 (stereo not given)	1.1	101	/	/	/	-4	i
O=C1CCCC2=C1C1(O)C(=O)c3ccccc3C1(O)O2 (stereo not given)	0.99	92	-0.1	/	/	-9	i
O=C(O)CCSc1nc2ccccc2n1CCOc1ccccc1	0.85	90	-2.9	/	/	-5	i
CC(=O)Nc1ccccc1Sc1ccc2c3c(cccc13)C(=O)N(c1ccc(C)cc1)C2=O	0.71	112	0.6	79	16	-3	i
CC(NC(=O)COC(=O)c1cc(NS(=O)(=O)c2ccc(Cl)c([N+](=O)[O-])c2)ccc1O)C1CC2CCC1C2 (stereo not given)	0.76	99	0.5	81	-83	-4	i
Cc1nc(NC(=O)/C=C/c2ccccc2)sc1C(=O)Nc1ccccc1	0.72	103	-2.5	132	-33	-2	i
CCCCC(=O)NC(=O)NC(c1ccccc1)c1ccccc1	0.84	99	/	/	/	/	i
Cc1cc(C)cc(NCc2cc(=O)oc3cc(-c4ccccc4)c(O)cc23)c1	0.89	98	2.0	/	/	-3	i
O=C1CCCc2sccc2N1	0.67	106	-2.5	70	-21	1	i
CCOC(=O)CC(NC(=O)c1cc2cc(Br)ccc2oc1=O)c1cccc([N+](=O)[O-])c1 (stereo not given)	0.9	99	-2.9	88	-23	6	i
CN(CC(=O)N1CCN(c2cccc(Cl)c2)CC1)S(=O)(=O)c1cccs1	0.8	178*[activator]	-0.6	78	-19	-3	i
Cn1c(=O)c(=O)n(C)c2cc(S(=O)(=O)N3CCN(c4ccc(F)cc4)CC3)ccc21	0.96	59	-1.1	96	17	-7	i
CC[n+]1c(C)sc2c3ccsc3ccc21	1.1	89	/	26	50	2	i
CCOC(=O)C1CCN(C(=O)COc2ccc(S(=O)(=O)NC(C)(C)C)cc2)CC1	0.74	95	-1.6	112	-73	-3	i
CCOc1ccc(NC(=O)c2sc(N3CCOCC3)nc2-c2ccccc2)cc1	1.1	115	-1.8	102	6	3	i
CC(C)Oc1cccc(OCCN2C(=O)c3ccccc3C2=O)c1	0.91	106	/	/	/	0	i
O=C(CSc1nnc(Cc2cc(=O)[nH]c(=O)[nH]2)n1-c1ccccc1)N1CCCCC1	1	101	-2.5	/	/	-5	i
CCc1nnc(NC(=O)CSc2nnc(C3CCCCC3)n2-c2ccccc2)s1	1	101	0.4	/	/	5	i
C/C(CC(=O)NC(C)c1ccccc1)=N\NC(N)=S (stereo not given)	1	97	/	/	/	/	i
CC(=O)NNC(=S)Nc1cc(S(=O)(=O)N(C)C)ccc1C	0.88	35	-0.8	70	24	-4	i
COc1cc2c3c(c1OC)C1(C=CC(=NNC(N)=O)C=C1)CC3N(C(C)=O)CC2 (stereo not given)	1.1	118	0.1	94	4	-3	i
Cc1ccc(-n2c(SCC(=O)Nc3ccc4c(c3)OCCO4)nnc2-c2ccco2)cc1	0.85	99	1.9	104	18	-3	i
COc1ccc(C(=O)NC(=S)NCc2ccccc2)cc1OC	0.88	108	/	183	-10	-3	i
CC(=O)c1sc2nc(-c3ccco3)ccc2c1N	0.88	82	/	/	/	/	i
CC12CC(NC(=O)N1c1cccc(C(=O)NCc3ccccc3)c1)c1ccccc1O2 (stereo not given)	/	97	-0.4	99	-18	5	/
Cc1ccc(-c2cc(C(=O)NCc3ccco3)c3ccccc3n2)s1	0.94	100	0.0	/	/	3	i
O=C(c1ccco1)N1CCN(C(=O)c2cc3cc([N+](=O)[O-])ccc3oc2=O)CC1	1.1	101	/	/	/	2	i
CCc1nnc(NS(=O)(=O)c2ccc(Nc3ccc4nonc4c3[N+](=O)[O-])cc2)s1	1	101	/	140	33	-4	i
COc1ccc(-c2cc(C(F)(F)F)nc(N3CCOCC3)n2)cc1OC	0.97	62	-1.6	/	/	-2	i
COC(=O)Cn1c2ccc(Cl)cc2c2nc(C)sc21	1	98	/	/	/	/	i
CCOC(=O)c1cc(-c2ccccc2)nn1CCC#N	0.95	104	/	/	/	-5	i
O=Cc1cn(CC(=O)N2CCCCCC2)c2ccccc12	1	102	/	/	/	/	i
COc1ccccc1CNC(=O)c1ccc(-c2ccccc2C(F)(F)F)o1	0.76	101	-0.8	100	-25	-1	i
O=C(NCCc1ccccc1)c1ccc2c(c1)N(Cc1ccccc1)C(=O)CS2=O (stereo not given)	0.88	102	-1.0	/	/	-3	i
CC1(C)CC(=O)c2cc(C(=O)Nn3cnnc3)c(=O)n(-c3ccccc3)c2C1	1	102	-2.6	66	-29	5	i
CC(=O)Nc1nc(SCC(=O)Nc2nnc(C)s2)[nH]c(=O)c1NC(=O)c1cccs1	1.1	98	/	/	/	5	i
COc1cccc(/C=N/n2nnnc2N)c1O	1.1	104	/	/	/	/	i
CCn1cc(Br)c(-c2nc3ccccc3c(=O)n2N)n1	1.1	104	-2.7	72	0	0	i
CC(=O)Nc1cc2ccccc2oc1=O	0.89	100	/	94	35	-4	i

# Of the compounds above, these have an aryl methoxy group.
structure	HSV augment primary fold	RGS16-Gao	GALR2 agonist	INS promoter inh cell count	INS promoter inh	PKD1 kinase inh	HSV augment
COc1cc(/C=N/NC(=O)NC2CCCCC2)cc(OC)c1O	0.89	96	/	/	/	/	i
COc1ccc(C2c3c(n[nH]c3C)CC(C)(O)C2C(C)=O)cc1OC (stereo not given)	0.99	94	-2.8	/	/	-4	i
COc1ccccc1N1C(=O)N(C(C)=O)C2C1Nc1ccccc1N2C (stereo not given)	1.2	101	-0.7	/	/	-2	i
COc1cc(C2NC(=S)NC(c3ccccc3)=C2C(C)=O)ccc1O (stereo not given)	1	101	/	/	/	-4	i
COc1ccc(/C=C/C(=O)NCCOc2ccc(C)cc2)cc1	0.97	105	-1.1	91	7	-3	i
CCOCCCN1C(=O)CN(C2CCCCC2)C(=O)C1c1ccc(OCC)c(OC)c1 (stereo not given)	0.84	113	-1.5	127	-3	4	i
COc1cc2c3c(c1OC)C1(C=CC(=NNC(N)=O)C=C1)CC3N(C(C)=O)CC2 (stereo not given)	1.1	118	0.1	94	4	-3	i
COc1ccc(C(=O)NC(=S)NCc2ccccc2)cc1OC	0.88	108	/	183	-10	-3	i
COc1ccc(-c2cc(C(F)(F)F)nc(N3CCOCC3)n2)cc1OC	0.97	62	-1.6	/	/	-2	i
COc1ccccc1CNC(=O)c1ccc(-c2ccccc2C(F)(F)F)o1	0.76	101	-0.8	100	-25	-1	i
COc1cccc(/C=N/n2nnnc2N)c1O	1.1	104	/	/	/	/	i

# Compound activity from PubChem BioAssay.
